# N370S GC mod = qHTS Assay for Inhibitors and Activators of N370S glucocerebrosidase as a Potential Chaperone Treatment of Gaucher Disease; Lysosomal acid glucosylceramidase (Homo sapiens), P04062; N370S GC spleen homogenate, 4MU-glucoside fluorescence; Potency, µM (top dose mostly 59.4 µM), without a hit: top-dose activity change, negative = inhibition, usual class: inhibitors; 0.092% of 330,000 active;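 also: 0% = full enzyme activity and -100% = no enzyme basal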
# GCN5L2 inh = qHTS Assay for Inhibitors of GCN5L2. Histone acetyltransferase KAT2A (Homo sapiens), Q92830. GCN5L2 HAT assay, ThioGlo1 CoA-SH fluorescence. Potency, µM (titrated, usually from 58.9 µM), without a hit: top-dose activity change, negative = inhibition, actives largely listed as inhibitors. 0.21% of 390,000 active
# Target sequence (Q92830 whole entry, looked up): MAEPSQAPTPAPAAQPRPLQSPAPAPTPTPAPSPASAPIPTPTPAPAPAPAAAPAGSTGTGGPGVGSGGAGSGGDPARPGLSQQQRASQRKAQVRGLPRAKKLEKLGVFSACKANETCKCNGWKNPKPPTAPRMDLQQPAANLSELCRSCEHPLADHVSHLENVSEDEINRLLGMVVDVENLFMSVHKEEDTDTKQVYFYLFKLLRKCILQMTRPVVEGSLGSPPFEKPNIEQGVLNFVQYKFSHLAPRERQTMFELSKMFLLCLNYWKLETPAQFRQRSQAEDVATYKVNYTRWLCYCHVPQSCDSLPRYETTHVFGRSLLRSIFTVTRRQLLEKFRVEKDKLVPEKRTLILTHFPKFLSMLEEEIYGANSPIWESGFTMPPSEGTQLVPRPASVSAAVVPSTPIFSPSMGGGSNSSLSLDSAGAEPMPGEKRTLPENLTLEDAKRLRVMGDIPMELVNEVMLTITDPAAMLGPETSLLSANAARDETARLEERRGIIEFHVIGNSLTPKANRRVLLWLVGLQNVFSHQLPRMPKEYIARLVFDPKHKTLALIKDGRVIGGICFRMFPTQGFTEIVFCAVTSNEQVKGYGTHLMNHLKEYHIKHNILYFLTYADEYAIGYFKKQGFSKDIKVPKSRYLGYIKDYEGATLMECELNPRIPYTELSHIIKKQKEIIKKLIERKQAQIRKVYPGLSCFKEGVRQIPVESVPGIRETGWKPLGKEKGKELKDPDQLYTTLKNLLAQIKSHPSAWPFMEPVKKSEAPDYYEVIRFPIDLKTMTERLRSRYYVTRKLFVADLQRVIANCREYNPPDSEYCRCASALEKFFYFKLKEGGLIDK
#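 qHTS, 1536-well. 20nM enzyme, pH 7.5 HEPES/EDTA/Tween-20 buffer; 15 min compound preinc., RT. Start: 75uM H3(1-25), 70uM AcCoA, 50uM ThioGlo1. Read Ex340/Em540 at t=0 (autofluorescence flag) and t=20 min.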
# An asterisk follows results filed as active; ? = inconclusive; . = no result given; & = joins results of further samples; [ ] = dose if it differs, or a comment. Calls follow the shape of the dose curve; as a rule, active = well fitted curve in the direction sought with a large enough effect; inconclusive = small, poorly fitted or top-dose-only effect, or another doubt; inactive = no such curve, though single readings can be large; an effect the other way counts as inactive or inconclusive. Unless noted, % is scaled to controls: 0 for no effect and ±100 for the full control effect; potency is read from the fitted curve at half-maximal effect. An excerpt, and most or all hits are left out here.
SMILES,N370S GC mod,GCN5L2 inh
Cc1ccc(C)c(NC(=O)CSc2nnc(NC(=O)Nc3ccccc3)s2)c1,.,-2%
COc1cccc(/C=C/C(=C2/C(=O)N(c3ccccc3)N=C2C)c2ccccc2)c1OC,-1%,1%
COc1ccccc1NC(=O)Nc1ccc(C(N)=O)cc1,-3%,5%
Cc1ccc(-n2ncc3c(N4CCCCC4)ncnc32)cc1Cl,.,-11%
CC1(C)N([O-])C(c2ccccc2)=C[N+](=O)C1(C)C,-22%,-10%
Cn1ccnc1SCC(=O)c1c(N)n(C)c(=O)n(C)c1=O,.,-10%
Cn1cnnc1SCC(=O)Nc1ccc(Br)cc1F,8%,0%
Cn1c(=O)c2ccccc2n2c(CCC(=O)N3CCN(c4cccc(Cl)c4)CC3)nnc12,.,1%
COc1ccc(OC)c(C2=NNC(=NCc3ccc4c(c3)OCO4)SC2)c1,9%,-2%
CC(C)CNC(=S)NC(=O)c1csc([N+](=O)[O-])c1,-2%,3%
Cc1ccc(S(=O)(=O)N2CCOC2CNC(=O)C(=O)NCc2ccccc2)cc1 (stereo not given),-11%,-5%
COc1ccccc1OC(=O)c1ccc2nsnc2c1,-7%,-6%
CSc1ccc(CNCc2ccc3c(c2)OCO3)cc1,-15%,3%
O=C(Nc1nc(-c2ccccc2)ns1)c1cccs1,-6%,1%
O=C(C1CCN(C2CC(=O)N(Cc3ccccc3)C2=O)CC1)N1CCCCCC1 (stereo not given),-25%,-3%
CS(=O)(=O)N(Cc1ccc(C(=O)NN=C2CCCC2)cc1)c1ccccc1,1%,-1%
COC(=O)c1cc(S(=O)(=O)N2CCOCC2)c(Cl)cc1N1CCOCC1,-3%,-8%
Oc1ccc(Br)cc1-c1cc(-c2ccccc2)n[nH]1,-3%,-8%
Cc1nnc(C)n1/N=C/c1ccc2c(c1)OCCO2,8%,-1%
O=C(NCc1ccc2c(c1)OCO2)C1CCC(CNc2c(N3CCCC3)c(=O)c2=O)CC1 (stereo not given),2%,-2%
O=C(NCCN1CCCC(O)C1)c1cc(COc2ccc(F)cc2Cl)on1 (stereo not given),-14%,-6%
COc1cc(/C=C(\NC(=O)c2ccccc2)C(=O)NCC(=O)O)c([N+](=O)[O-])cc1OC,12%,-7%
O=C(Cn1cnc2ccccc21)N/N=C/c1cccnc1,-1%,-1%
Cc1cccc(NC(=O)c2cc(CN3CCOCC3)on2)c1C,.,-3%
Cc1nnc(SCC(=O)c2c(N)n(C3CC3)c(=O)[nH]c2=O)n1C,.,-3%
CC(=O)NCCOc1cccc2ccccc12,7%,0%
COc1ccc2cc(CCNS(=O)(=O)c3ccc(NC(C)=O)cc3)c(=O)[nH]c2c1,-6%,-3%
CCN(C[C@H]1N[C@@](CC)(C(=O)OC)[C@H]2C(=O)N(C)C(=O)[C@@H]12)C(=O)c1ccc(F)cc1,.,-3%
CC(CNC(=O)c1nnc(Cc2ccc(F)cc2)o1)c1ccccc1 (stereo not given),.,1%
CCCCNC(=O)c1nn(-c2ccc(C)cc2)c(=O)c2c1c1ccccc1n2C,.,-8%
O=C(Nc1ccccc1N1CCOCC1)c1cccnc1,-22%,-1%
CC(=O)Nc1ccc(N/C=C/C(=O)c2ccc(C)o2)cc1,-21%,-10%
CSc1cc(C)c(OCC(=O)Nc2ccc(NC(C)=O)cc2)c(C)c1,-5%,0%
O=S(=O)(NC1=NCCC1)c1ccc(F)cc1F,4%,-2%
CC(=O)Nc1ccc(S(=O)(=O)Nc2cccc(NC(=O)c3ccco3)c2)cc1,-5%,-1%
Cc1csc(-c2cccnc2)n1,-23%,-5%
CCN(CC)CCn1c(NS(=O)(=O)c2ccc(Cl)cc2)nc2ccccc21,5%,-7%
Cc1cc([N+](=O)[O-])cc2c1NC(c1ccccn1)C1CC=CC21 (stereo not given),-3%,2%
COc1cccc(/C=N/NC(=O)CSc2nnc(C)n2-c2ccccc2)c1O,-2%,-19%
Cc1ccc(NC(=O)CSCc2nc3c(nnn3Cc3ccc(F)cc3)c(=O)[nH]2)c(C)c1,-14%,2%

# Next part, starting with the last 3 of the part before.
SMILES,N370S GC mod,GCN5L2 inh
Cc1cc([N+](=O)[O-])cc2c1NC(c1ccccn1)C1CC=CC21 (stereo not given),-3%,2%
COc1cccc(/C=N/NC(=O)CSc2nnc(C)n2-c2ccccc2)c1O,-2%,-19%
Cc1ccc(NC(=O)CSCc2nc3c(nnn3Cc3ccc(F)cc3)c(=O)[nH]2)c(C)c1,-14%,2%
O=C(O)CC(NCc1ccco1)C(=O)OCC1CCCO1 (stereo not given),1%,0%
Cc1cc(S(=O)(=O)Nc2cccc(C(=O)O)c2)c(C)c(S(=O)(=O)c2ccc(Cl)cc2)c1,-4%,0%
CC1CCCCN1C(=O)COc1ccc(F)cc1 (stereo not given),11%,-1%
Cc1ccc(-c2nnc(SCc3ccccc3F)o2)cc1,18%,-1%
COc1cccc(Oc2nnnn2-c2ccccc2)c1,-25%,-4%
COc1ccc(C(=O)N/C(=C\c2ccccc2)C(=O)NCCCn2ccnc2)cc1,-1%,-5%
O=[N+]([O-])c1ccc(Nc2cccc(F)c2)nc1,-5%,-3%
O=[N+]([O-])c1ccc(CN2CCN(c3ccc4ccccc4n3)CC2)cc1,-21%,-7%
CCSc1ncc(Cl)c(C(=O)Nc2ccc(S(=O)(=O)N3CCC(C)CC3)cc2)n1,.,-7%
O=C(/C=C\Nc1ccc(Br)cc1)c1cccnc1,3%,-4%
Cc1cc(C)c(C(=O)CSC2=NC(N)=C(C#N)C3(CCCCC3)C2C(N)=O)cc1C (stereo not given),2%,-2%
O=C(NCc1ccc2c(c1)OCO2)C1CCCN(C(=O)c2ccc(Cl)cc2)C1 (stereo not given),12%,-6%
CN(C)S(=O)(=O)c1ccc(C(=O)NCCOc2ccccc2)cc1,-5%,-2%
CCS(=O)(=O)N1CCCC(C(=O)NCCc2ccc(OC)c(OC)c2)C1 (stereo not given),4%,2%
COc1ccccc1NC(=O)c1ccccc1S(=O)(=O)c1ccc([N+](=O)[O-])cc1,-10%,1%
Cc1cc(/C=C(/C#N)C(=O)Nc2ccc(Cl)cc2)c(C)n1-c1cccnc1,-3%,-3%
COc1cc(C(=O)Nc2ccccc2-c2nc(-c3ccc(C)cc3)no2)cc(OC)c1OC,.,-1%
CC(C)NC(=O)N(C)C[C@H]1Oc2ccc(NC(=O)Nc3ccccc3)cc2C(=O)N([C@H](C)CO)C[C@@H]1C,.,3%
COc1ccccc1C(O)Cc1nc2ccccc2n1C (stereo not given),.,-2%
CCCCNC(=O)Nc1nnc(-c2ccccc2)o1,-27%,-3%

# An excerpt from above in order of heavy-atom count, descending:
SMILES,N370S GC mod,GCN5L2 inh
CC(C)NC(=O)N(C)C[C@H]1Oc2ccc(NC(=O)Nc3ccccc3)cc2C(=O)N([C@H](C)CO)C[C@@H]1C,.,3%
O=[N+]([O-])c1ccc(CN2CCN(c3ccc4ccccc4n3)CC2)cc1,-21%,-7%
CN(C)S(=O)(=O)c1ccc(C(=O)NCCOc2ccccc2)cc1,-5%,-2%

# (cont.)
SMILES,N370S GC mod,GCN5L2 inh
CCOC(=O)NC(=O)C(=CNc1ccc(C)cc1)C(=O)NC(=O)OCC,-8%,1%
CN(C)C(=O)c1cc(C(=O)c2ccccc2)c[nH]1,4%,3%
CCOC(=O)c1oc2ccccc2c1COC(=O)CNC(=O)c1ccccc1,1%,-4%
CCS(=O)(=O)N1CCCc2cc(C(=O)Nc3cccc(C(C)=O)c3)ccc21,.,-7%
CCOC(=O)c1c(N)nn(C(=O)c2ccccc2)c1-c1ccccc1,3%,-3%
C/C(=N\NC(=O)c1ccc(NS(=O)(=O)c2cccs2)cc1)c1ccncc1,9%,2%
CC(=O)C(=Cc1ccc(O)cc1)C(C)=O,-3%,-3%
Cc1cc(Cl)ccc1OCC(=O)N1CCN(c2ncccn2)CC1,-20%,-4%
COC(=O)c1ccc(N/C=C\C(=O)c2ccc3c(c2)OCO3)cc1,11%,-9%
COc1ccc(NS(=O)(=O)c2cccc(C(=O)N3CCN(c4ccccc4O)CC3)c2)cc1,-20%,-12%
COc1ccccc1-c1cc(C(=O)N2CCCC2)no1,1%,-6%
CCOc1ccc(NC(=O)CC(NC(C)=O)c2ccccc2)cc1S(=O)(=O)N1CCCC1 (stereo not given),.,0%
CC(=O)c1cccc(NC(=O)COc2ccc(S(=O)(=O)N3CCOCC3)cc2)c1,-13%,-20%
O=C(NCC(=O)N1CCN(S(=O)(=O)/C=C/c2ccccc2)CC1)c1ccc(Cl)cc1,-8%,-2%
CCNc1nc(NC(C)C)nc(OCCNS(=O)(=O)c2cc(C)ccc2C)n1,2%[2.35 µM],0%
CCN(CC)S(=O)(=O)c1ccc2[nH]cc(C(=O)NCCCN3CCCCC3C)c(=O)c2c1 (stereo not given),-2%,-9%
COc1ccc(NC(=O)NCc2cccnc2)cc1OC,-9%,4%
Cc1ccc(NC(=O)c2cc([N+](=O)[O-])ccc2NCc2cccnc2)cc1Cl,-7%,-1%
O=S(=O)(Cc1ccc(Cl)cc1)N1CCN(Cc2ccc3c(c2)OCO3)CC1,-25%,-5%
COc1ccc(/C=N/NC(=O)c2ccccc2)cc1CN1CCN(c2ccc(F)cc2)CC1,0%,0%
COc1ccc([N+](=O)[O-])cc1NC(=O)CCN1CCOCC1,-18%,13%
O=C(Cc1ccc([N+](=O)[O-])cc1)N1CCN(c2ccc([N+](=O)[O-])cc2)CC1,?,-15%
CC1(C(=O)NC2CCCCC2)CCC(=O)N1Cc1cccnc1 (stereo not given),3%,2%
Cc1ccc(S(=O)(=O)NCCc2ccncc2)cc1,-10%,1%
CCN(CC(=O)N1CCCCC1)S(=O)(=O)c1ccccc1,1%,-6%
CCOC(=O)c1csc(-c2ccc([N+](=O)[O-])cc2)n1,9%,-11%
COc1ccc(NC(=O)c2sc(Cl)nc2-c2ccccc2)cc1,-1%,-7%
CCOC(=O)/C=C/C(=O)Nc1ccc(-c2nnc3n2CCCCC3)cc1,-3%,-1%
C=CCN1C(=O)C(CC(=O)O)SC1=Nc1ccc(C)cc1 (stereo not given),6%,-2%
O=C(Nc1ccc(F)cc1F)c1cc(-c2ccc3c(c2)OCO3)on1,-16%,0%&4%
COC(=O)CCCNC(=O)c1ccccn1,5%,-1%
CCOc1ccc(-n2cnnn2)cc1S(=O)(=O)NCc1ccccc1,2%,-1%
COc1ccccc1N(CC(O)Cn1ccnc1C)S(=O)(=O)c1ccc(C)cc1 (stereo not given),-14%,-5%
Cc1ccc(S(=O)(=O)N(Cc2cccc(Cl)c2)C(=O)N2CCN(C)CC2)cc1,1%,-7%
COc1cc(C(=O)N2CCc3ccccc32)ccc1OCc1c(C)noc1C,3%,2%
Cc1cccc(/C(N)=N/OC(=O)Cc2ccccc2)c1,11%,-6%
Cc1cccn2c(=O)c3cc(C(=O)NC4CCCC4)c(=N)n(Cc4ccc(F)cc4)c3nc12,1%,-6%
COc1ccc(CC(=O)N(C)CC(=O)Nc2ccccc2Cl)cc1S(=O)(=O)N1CCOCC1,.,-8%
COc1cc(/C=N/N(C)S(=O)(=O)c2ccc(C)cc2)cc([N+](=O)[O-])c1O,-7%,-18%
Cc1ccc(C)c(Cn2ncc3ccccc32)c1,2%,-1%
COc1ccc(CCNC(=O)CS(=O)(=O)c2cn(CC(=O)N(C(C)C)C(C)C)c3ccccc23)cc1OC,-5%,5%
CC(=O)Nc1cccc(C(=O)/C=C/c2ccc[nH]2)c1,-4%,3%
COc1ccc(NC(=O)CN(C)C(=O)CCCc2c[nH]c3ccccc23)cc1,-14%,-4%
COC(=O)C(C)NC(=O)C12CC3CC(CC(C3)C1)C2 (stereo not given),2%,-13%
O=C(C1=C[C@@H](c2coc3ccccc3c2=O)C[C@@H](OCCCCO)O1)N1CCN(Cc2ccc3c(c2)OCO3)CC1,-8%,-1%
O=C(O)CN=C(NS(=O)(=O)c1ccccc1)c1ccccc1,10%,2%
CCn1cnc2cc(NCc3ccc(Br)cc3)ccc21,-9%,2%
CNC(=O)c1ccccc1Sc1cccc2cccc(C(=O)O)c12,-8%,-1%
COc1ccc(OC)c(C(C)NC(=O)c2ccco2)c1 (stereo not given),-15%,-8%
O=C(CCC(=O)OCC(=O)c1ccc(Br)cc1)Nc1ccc(Br)c2cccnc12,14%,0%
COC(=O)C1=C(N)Oc2cc(C)n(Cc3ccco3)c(=O)c2C1c1cccc(Cl)c1 (stereo not given),12%,-6%
COc1ccc(S(=O)(=O)N2CCCC(C(=O)NCC3CCCO3)C2)cc1C (stereo not given),-12%,-3%
COc1ccc(C(c2nnnn2CS(=O)(=O)c2ccc(C)cc2)N2CCN(c3ncccn3)CC2)cc1 (stereo not given),-3%,-1%

# Single records, from the list above.
# Listed for CN(C)S(=O)(=O)c1ccc(C(=O)NCCOc2ccccc2)cc1 → N370S GC mod = -5%; GCN5L2 inh = -2%
# Listed for COc1ccccc1NC(=O)Nc1ccc(C(N)=O)cc1 → N370S GC mod = -3%; GCN5L2 inh = 5%

# Bioassay records (PubChem BioAssay)
